Screening data as filed in PubChem.
LANA-H2B inh: blockers of LANA interaction with H2A/H2B – biochemical, FP readout, HTS, primary screen; cell-free LANA-H2A/H2B peptide, fluorescence polarization; inhibition, % (no concentration beside the values); 320,000 compounds, 0.6% hits; AID 2629, 2010; in the data active means inhibition mostly above about 10%, no sharp cut-off; inactive means mostly below about 6.7%;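 further: stock transfer was 7.5 nL into about 10 µL; 0% = median of vehicle wells and 100% = median of positive control wells; one replicate is shown; the record names a cut of 25% in any replicate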
Beta2AR agonist: beta2AR agonists driving receptor internalization, primary screen, cell-based, FAP fluorogen, flow cytometry. Beta-2 adrenergic receptor (Homo sapiens), P07550. Am2.2-beta2AR cells; reference of the scale not given here. response, % (test concentration not listed). 340,000 compounds, 0.43% hits;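 active means response above a set limit, near 3 SD of response in nonfluorescent compounds, cut at about 42% in these data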;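 further: stock transfer was 100 nL into about 11 µL; a reference agonist was the positive control; negative values mostly stem from fluorescent compounds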
Target sequence (P07550 whole entry, looked up): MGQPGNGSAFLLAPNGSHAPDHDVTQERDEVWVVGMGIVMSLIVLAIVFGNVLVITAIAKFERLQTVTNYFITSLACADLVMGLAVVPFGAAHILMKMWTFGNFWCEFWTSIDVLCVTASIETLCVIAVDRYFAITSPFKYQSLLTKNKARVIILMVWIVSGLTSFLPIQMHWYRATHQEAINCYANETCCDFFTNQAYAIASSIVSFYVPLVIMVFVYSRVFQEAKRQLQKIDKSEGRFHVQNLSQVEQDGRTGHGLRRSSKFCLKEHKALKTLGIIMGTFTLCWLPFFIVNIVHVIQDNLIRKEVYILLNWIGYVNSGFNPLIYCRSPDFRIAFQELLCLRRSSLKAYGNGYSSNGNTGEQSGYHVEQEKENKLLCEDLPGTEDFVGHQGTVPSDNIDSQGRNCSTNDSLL
Ecoli growth: E. coli growth inhibition, primary screen, OD600; Escherichia coli growth, 23 h; stronger effect = lower value; OD600 absorbance (test concentration not listed); 330,000 compounds, 0.21% hits; AID 1053175, 2014;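 active means OD600 absorbance below the run mean of sample wells minus 3.6 SD, in any replicate, cut at about 0.56 in these data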;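 further: stock transfer was 300 nL into about 60 µL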
HNF4A DNA FP: change in binding of human HNF4A to DNA, primary screen, biochemical, fluorescence polarization, FITC-DNA | activity change, % at 10 µM | AID 1224865, 2016 | Hepatocyte nuclear factor 4-alpha (Homo sapiens), P41235 | 360,000 compounds, 0.3% hits | 1 h; in the data active means activity change above about 30%, passing the limit was not always enough;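 further: controls were the assay level and a saturating level of protein; the project sought stronger binding though the title names inhibitors; some compounds called inactive have numbers as strong as hits; positive values seem to mean higher polarization but the record does not say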
Target sequence (P41235 whole entry, looked up): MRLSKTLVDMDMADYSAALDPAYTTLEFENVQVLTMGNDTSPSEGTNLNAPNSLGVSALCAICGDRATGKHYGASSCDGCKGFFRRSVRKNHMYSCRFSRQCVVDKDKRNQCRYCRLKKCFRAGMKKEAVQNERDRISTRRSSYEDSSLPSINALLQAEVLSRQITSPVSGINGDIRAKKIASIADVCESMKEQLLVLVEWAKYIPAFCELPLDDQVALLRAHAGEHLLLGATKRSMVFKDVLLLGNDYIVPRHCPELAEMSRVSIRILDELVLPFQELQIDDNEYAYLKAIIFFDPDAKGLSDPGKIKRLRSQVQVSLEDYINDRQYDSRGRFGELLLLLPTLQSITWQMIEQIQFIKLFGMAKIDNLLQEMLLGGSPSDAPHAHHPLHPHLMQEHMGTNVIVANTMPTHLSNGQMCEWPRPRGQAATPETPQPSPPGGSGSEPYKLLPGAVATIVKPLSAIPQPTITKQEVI
Vif A3G: inhibitors of Vif binding to APOBEC3G peptide, primary screen, biochemical, TR-FRET, GST-Vif 1-94, biotin-A3G peptide, dose response retest (AID 1117319). Virion infectivity factor (Human immunodeficiency virus type 1 group M subtype B (isolate …. TR-FRET GST-Vif / biotin-A3G peptide binding; higher % means a stronger effect; test concentration not given here; strong numbers were not always called active. one-dose inhibition, %; IC50 in µM for titrated hits. 260,000 compounds, 0.57% hits;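 active means above the screen mean plus three standard deviations and confirmed in dose response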;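 further: Vif residues 1-94 fused to GST binding biotinylated APOBEC3G peptide 110-148; 0% = full assay without inhibitor and 100% = GST in place of GST-Vif; retest series ran down from 100 µM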
A1 inh: caspase 3/7 activation in MEF A1-2A-BIM cells, primary screen, A1 inhibitor project, cell-based, luminescence, HTS | Caspase-Glo 3/7 luminescence, 3 h; percent of clofoctol response, vehicle zero | caspase activation, % (test concentration not listed) | 330,000 compounds, 0.066% hits;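 active means over half of replicate activation scores above 10%, or exactly half above 10 with the replicate mean above 10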;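 further: wells of about 30 µL received 50 nL stock; many hits fall short of the cut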
UCH37 inh: inhibitors of human UCH37 deubiquitinase, primary screen, biochemical, Ub-AMC cleavage, fluorescence | purified proteasome/UCH37 | inhibition, % (test concentration not listed) | AID 588478, 2011 | 330,000 compounds, 0.33% hits;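 active means mean of two replicates above 20%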;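 further: 0% = compound-free wells with enzyme and 100% = wells lacking proteasome; stock transfer was 100 nL into about 20 µL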
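Signal – fluorescence, ex 355 nm, em 460 nm · System – Proteasome-bound UCH37 · Input – 0.15 nM proteasome as dispensed · Timing – 30 min preincubation with enzyme, 25 min cleavage at room temperature · Read-out basis – percent inhibition of cleavage signal versus uninhibited and no-proteasome wells · Medium – Tris-HCl pH 7.4 with ATP-MgCl2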
Starred values were filed as active, the others as inactive; · = not tested or not shown.

SMILES	LANA-H2B inh	Beta2AR agonist	Ecoli growth	HNF4A DNA FP	Vif A3G	A1 inh	UCH37 inh
O=C(CNC(=O)c1cccnc1)N/N=C/c1cccnc1	1.3	5	·	0.7	·	0.2	·
Cc1ccc(S(=O)(=O)N2CCN(C(=O)c3ccc(-n4cncn4)c([N+](=O)[O-])c3)CC2)cc1	-3.0	9	0.66	-0.6	5%	0.2	5.3
O=C(c1ccc(Oc2ccccc2)cc1)C1CCCN(C(=O)c2cnccn2)C1 (stereo not drawn)	-1.1	3	0.64	2.7	3%	-0.7	3.3
OCC1OC(n2ccc3c(NO)ncnc32)C(O)C1O (stereo not drawn)	·	4	·	1.4	-8%	·	·
COc1ccc(/C=C(\NC(=O)c2cccs2)C(=O)Nc2cccc3ccccc23)cc1OC	1.2	3	0.69	2.5	·	0.0	9.9
CCOc1nc2cnccc2n(CC(=O)Nc2ccccc2F)c1=O	-3.0	-2	0.71	1.0	·	0.6	0.4
C=C1c2cc(OC)ccc2NC(=O)N1CC	-0.9	-7	0.69	-5.3	-3%	1.5	-129
Clc1ccccc1CSc1nnc([C@@H]2CCCN2)o1	-7.8	0	0.67	0.5	4%	1.0	1.4
Cc1nc2ccc(NC(=S)NCc3ccccc3)cc2nc1C	-4.9	-10	0.62	-1.7	-18%	0.2	-17
CCc1sc(C(=O)N2CCCN(C)CC2)cc1Br	-0.6	10	0.69	-0.3	-2%	-0.8	-0.4
Cn1cccc1/C=N/NC(=O)C12CC3CC(CC(C3)C1)C2	-3.0	-10	·	-1.1	2%	-0.3	·
CCCCn1c(N)c(N(CCOC)C(=O)CCNC(=O)c2ccc(Br)cc2)c(=O)[nH]c1=O	·	0	0.7	2.1	0%	0.0	-0.5
O=C(Nc1ccc([N+](=O)[O-])cn1)c1ccc(Br)o1	8.4	-8	0.65	-0.4	·	-6.7	-0.6
COc1cc(-c2noc(C)c2C(=O)NCCc2c[nH]c3ccccc23)cc(OC)c1OC	-1.5	4	0.7	11	·	0.2	0.1
O=C(CN1C(=O)c2cccc3cccc(c23)C1=O)N1CCOCC1	-0.5	4	0.66	-1.3	-6%	0.5	-169
O=C(CNC(=O)c1ccccc1)OCc1cc(=O)n2cc(Br)ccc2n1	-1.0	-28	0.68	-0.6	·	0.0	-6.5
CCOC(=O)N1CCC(NC(=O)c2ccc3c(c2)N=C(C)c2c(C)ccc(C)c2S3)CC1	-1.2	19	0.75	3.8	-2%	-0.3	-9.5
COC(=O)c1ccc(S(=O)(=O)N2CCC(C(N)=O)CC2)n1C	-0.3	1	0.6	-3.9	-1%	0.1	2.4
Cc1ccc(-c2nc(N)nc(N)n2)c(C)c1	-2.5	4	0.65	1.0	·	2.6	4.8
C/C(CC(=O)Nc1ccccn1)=N\NC(=O)C(=O)Nc1cccc(Cl)c1C	-1.6	4	·	-1.5	3%	-0.4	·
Cc1nc([N+](=O)[O-])cn1CC(=O)Nc1ccc(Cl)cc1	1.6	1	0.7	0.5	-1%	1.0	0.3
COc1ccccc1CCNC(=O)CC1C(=O)NCCN1CCCc1ccccc1 (stereo not drawn)	-1.0	2	0.64	6.6	23%	-0.4	-11
Cc1ccccc1-n1ncc2c1CC(C)(C)CC2NC(=O)CCN1CCCCC1=O (stereo not drawn)	-1.1	-2	0.64	-0.6	·	-0.4	1.8
O=C(Nc1c2c(nn1-c1ccccc1)CSC2)c1ccc(N2C(=O)CCC2=O)cc1	2.8	-3	0.67	4.8	5%	0.6	1.1
CC(=O)NNC(=S)NC(=O)c1cccc([N+](=O)[O-])c1	4.1	6	0.66	2.7	24%	-0.2	7.8
Cn1c(=O)[nH]c(=O)c2c1nc(N1CCCC1)n2CCO	3.6	0	0.69	0.5	·	0.6	-0.9
Cc1cccc(C(=O)NNC(=O)c2ccc(NS(=O)(=O)c3cccs3)cc2)c1C	0.9	1	0.71	-0.2	-8%	1.1	3.2
O=C(N/N=C/c1cc(Br)cs1)c1ccccc1[N+](=O)[O-]	-18	-9	·	3.5	19%	-0.7	·
Cc1nc2ccc(NC(=O)COc3ccccc3F)cc2s1	-1.1	2	0.65	0.1	1%	-1.8	-1.8
N#Cc1nc(-c2ccco2)oc1N1CCN(Cc2ccccc2)CC1	2.2	-18	0.7	-0.1	-9%	0.4	0.9
O=C(CSC(=S)N1CCCCC1)Nc1ncc2c(n1)CCCC2=O	-2.0	-6	0.64	-2.8	-3%	0.9	3.9
COc1ccc(CSCC(=O)Nc2ccc(S(=O)(=O)N3CCCCCC3)cc2)cc1	-7.3	2	0.67	1.6	·	0.8	2.0
O=C(COC(=O)COc1ccc2c(c1)CCC2)Nc1ccccc1C(F)(F)F	-0.6	3	0.71	1.2	·	-0.4	4.5
COc1ccc(S(=O)(=O)NCCC(=O)N2CCCN(C)CC2)cc1	-4.2	-10	0.69	-1.8	-10%	0.2	3.9
Cn1c(=O)c(C(=O)NCCc2ccc(Cl)cc2)c(O)c2ccccc21	-5.0	-5	0.69	3.6	-4%	-0.3	2.8
COc1cc(OC)c(NC(=O)CCNS(=O)(=O)c2ccc3c(c2)CC(C)N3C(C)=O)cc1Cl (stereo not drawn)	5.1	-16	0.67	1.9	-3%	-0.3	4.9
CC(C)(C)NC(=O)CCc1ncc(C(F)(F)F)cc1Cl	1.4	-9	0.68	-1.8	6%	0.8	-0.2
Cn1c(=O)n(Cc2ccco2)c(=N)c2c3c(sc21)CCCC3	-1.3	-16	0.7	3.8	-8%	-0.4	0.2
c1ccc(-c2nnc3ccc(N4CCC5(CC4)OCCO5)nn23)cc1	-40	-2	0.72	-0.6	-5%	-0.1	0.9
CCn1nc(NC(=O)C2CCCO2)c2cc3cc(C)ccc3nc21 (stereo not drawn)	2.2	4	0.69	3.6	·	-0.3	-55
COCCC(=O)N1CCC(Oc2ccc(C(=O)NCc3csc(C)n3)cc2)CC1	-19	3	0.71	-0.9	·	0.1	2.9
CN(C)S(=O)(=O)c1cccc(NC(=O)c2cncc(Br)c2)c1	-4.2	-7	0.67	-1.5	-4%	0.2	4.8
CC(C)CN(CC(C)C)S(=O)(=O)N1CCC(C(=O)NCc2ccco2)CC1	1.5	-4	0.7	1.4	12%	-0.4	4.6
O=c1[nH]cnc2c1ncn2-c1ccc(N(CCO)CCO)cc1	·	0	·	-2.1	9%	·	·
Cc1nc2ccccc2nc(=O)c1NNc1ccccc1	·	-9	0.69	1.5	-5%	·	1.9

Part of the list above in order of count of non-hydrogen atoms, falling:
SMILES	LANA-H2B inh	Beta2AR agonist	Ecoli growth	HNF4A DNA FP	Vif A3G	A1 inh	UCH37 inh
CC(C)CN(CC(C)C)S(=O)(=O)N1CCC(C(=O)NCc2ccco2)CC1	1.5	-4	0.7	1.4	12%	-0.4	4.6
CCn1nc(NC(=O)C2CCCO2)c2cc3cc(C)ccc3nc21 (stereo not drawn)	2.2	4	0.69	3.6	·	-0.3	-55
O=c1[nH]cnc2c1ncn2-c1ccc(N(CCO)CCO)cc1	·	0	·	-2.1	9%	·	·
Cn1c(=O)n(Cc2ccco2)c(=N)c2c3c(sc21)CCCC3	-1.3	-16	0.7	3.8	-8%	-0.4	0.2

Carrying on.
SMILES	LANA-H2B inh	Beta2AR agonist	Ecoli growth	HNF4A DNA FP	Vif A3G	A1 inh	UCH37 inh
C=C(C)c1cccc(C(C)(C)NC(=O)N2CCN(CC(N)=O)CC2)c1	3.4	13	0.72	1.7	5%	0.7	-0.1
CC(C#N)Sc1ccc(S(=O)(=O)N2CCCC2)cn1 (stereo not drawn)	4.6	9	0.66	-5.5	-11%	0.0	1.9
Cc1nn(-c2ccc(F)cc2)c(Cl)c1/C=C(/CC(=O)O)c1nc2ccccc2s1	·	-2	0.69	-2.7	-3%	·	4.7
Cc1ccc(OCCn2cccn2)c(C)c1	-0.7	-7	0.66	2.5	-4%	0.3	3.4
CSc1ccc(C2CC(=O)Nc3nc(SC)[nH]c(=O)c32)cc1 (stereo not drawn)	-0.8	-4	0.65	-0.8	-2%	0.4	-1.3
COc1ccccc1NC(=O)CN(c1ccccc1C)S(C)(=O)=O	1.8	-6	0.62	3.5	3%	-0.2	1.2
CCCCNC(=O)COn1nnc2ccc(S(=O)(=O)N3CCOCC3)cc21	1.6	-4	0.67	-1.4	·	1.3	3.3
C=CCNC(=S)NNC(=O)C(CCC(C)C)CC(C)(C)O (stereo not drawn)	-0.4	4	0.68	-8.2	4%	0.1	31*
NC(=O)[C@@H]1CCCCNc2c(F)cc([N+](=O)[O-])cc2C(=O)N[C@@H](CC(=O)O)C(=O)N[C@@H](CCC(=O)O)C(=O)N1	-2.1	3	·	-1.6	25%	0.1	7.3
O=C(Cc1ccccc1F)NC1CCSc2ccccc21 (stereo not drawn)	-1.3	1	0.69	-3.6	·	-0.8	0.1
COc1ccc(CNC(=O)C2CCCC2)cc1	-1.4	-2	0.7	4.4	·	1.2	3.3
O=C(c1ccc(F)cc1)N1CCN(C(=O)c2cccnc2)CC1	7.2	-2	0.69	-1.6	17%	1.2	3.2
N#CCN1C(=O)C(=O)N(Cc2cccc(C(F)(F)F)c2)C1=O	3.9	14	0.7	0.2	-1%	0.3	1.8
O=S(=O)(NCCOc1ccccc1F)c1ccc(Cl)cc1F	-1.1	3	0.64	-1.3	·	0.3	-1.3
CC(=O)NC(=S)NNC(=O)COc1ccc([N+](=O)[O-])cc1	3.5	-3	0.67	-4.3	-5%	0.1	2.9
O=C(c1ccc(F)cc1)N1CCC(O)(c2cccnc2)CC1	-1.8	2	0.73	-2.1	2%	-0.1	4.3
CCOC(=O)Cc1csc(NC(=O)c2ccc3c(c2)OCO3)n1	0.0	2	0.72	-5.1	1%	-2.5	2.1
Cc1cc(C)cc(NC(=O)COC(=O)c2ccc(CN3CCCC3=O)cc2)c1	-3.0	9	0.66	-3.7	-3%	-0.3	-3.3
Cc1c(C(=O)N(C)Cc2cccc(F)c2)oc2c(Cl)cccc12	-8.9	0	0.71	2.3	9%	0.1	5.3
Cc1nnc(-c2cnn(C)c2N)n1Cc1ccccc1F	-0.1	0	0.73	0.7	10%	0.0	0.2
C/C(=N\Nc1ccc(Cl)c(C(=O)O)c1)c1ccc(N2CCOCC2)cc1	11*	5	·	0.6	·	-0.6	·
O=C(N/N=C/c1ccc(OC(=O)c2ccccc2)cc1)c1cccc(O)c1	0.3	14	·	1.2	10%	0.7	·
O=C(Cc1ccc([N+](=O)[O-])cc1)Nc1nnc(C2CC2)s1	-4.6	-5	0.68	-1.7	9%	1.4	1.9
CCCN(C(=O)/C=C/c1nc2ccccc2s1)C1CCS(=O)(=O)C1 (stereo not drawn)	1.3	-9	0.69	4.4	·	0.5	-28
CN(C(=O)c1cccc(OC2CCN(S(=O)(=O)N(C)C)CC2)c1)C1CCOC1 (stereo not drawn)	·	-4	0.72	-6.6	·	·	-0.3
CC12CCC(C(=O)N(CCCCN3CCN(c4ccccn4)CC3)C1=O)C2(C)C (stereo not drawn)	4.9	-7	0.69	6.1	·	1.0	1.5
O=C(O)c1cc(S(=O)(=O)N(Cc2ccccc2)c2ccc(Cl)cc2)ccc1Cl	-3.4	4	0.71	3.7	·	0.3	2.5

Entries listed above that bear a hit mark in UCH37 inh:
Structure | LANA-H2B inh | Beta2AR agonist | Vif A3G | A1 inh | UCH37 inh
C=CCNC(=S)NNC(=O)C(CCC(C)C)CC(C)(C)O (stereo not drawn) | -0.4 | 4 | 4% | 0.1 | 31*
